From PubChem BioAssay
Ecoli rRNA inh: inhibits bacterial ribosomal RNA function over humanized ribosomes | AID 720706 | 1.6% of 350,000 active | E. coli WT GFP vs humanized-ribosome RFP mutants, fluorescence, 24 h; active compounds read low; DMSO median 0, no signal -100 | GFP signal change (wild-type ribosome), % (concentration not given with the values);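 active = significant combined selectivity score with lowered wild-type GFP, culture density cut under 30%, mutant RFP and density less affected; inactive = any of these conditions unmet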; note: one replicate is shown; some compounds called inactive have numbers as strong as hits
Beta cell apopt: beta cell apoptosis inhibition; AID 435005; protection from apoptosis, % (no concentration beside the values); INS-1E cytokine-induced death, ATP luminescence, 48 h; percent of positive-control rescue, neutral wells zero; 0.8% of 300,000 active;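 active = all replicates at 75% or more, or half of them and the mean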;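 note: 0% = cytokine-treated negative control wells and 100% = positive control rescue; higher means more ATP so stronger rescue from cytokine killing; wells of about 40 µL received 100 nL stock; the first replicate is given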
Bfl-1 A1 inh: inhibitors of the anti-apoptotic protein A1, read as caspase activation | MEF A1-2A-BIM cells, Caspase-Glo 3/7 luminescence, 3 h; percent of clofoctol response, vehicle zero | caspase activation, % (no concentration beside the values) | 0.066% of 330,000 active | AID 2462;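 active = over half of replicate activation scores above 10%, or exactly half above 10 with the replicate mean above 10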;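 note: wells of about 30 µL received 50 nL stock; many hits fall short of the cut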
UCH37 DUB inh: blocks the human deubiquitinase UCH37; purified proteasome/UCH37, Ub-AMC cleavage fluorescence; inhibition, % (test concentration not listed); 0.33% of 330,000 active; AID 588478;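 active = mean of two replicates above 20%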;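 note: 0% = compound-free wells with enzyme and 100% = wells lacking proteasome; stock transfer was 100 nL into about 20 µL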
Target sequence (Q9Y5K5 whole entry, looked up): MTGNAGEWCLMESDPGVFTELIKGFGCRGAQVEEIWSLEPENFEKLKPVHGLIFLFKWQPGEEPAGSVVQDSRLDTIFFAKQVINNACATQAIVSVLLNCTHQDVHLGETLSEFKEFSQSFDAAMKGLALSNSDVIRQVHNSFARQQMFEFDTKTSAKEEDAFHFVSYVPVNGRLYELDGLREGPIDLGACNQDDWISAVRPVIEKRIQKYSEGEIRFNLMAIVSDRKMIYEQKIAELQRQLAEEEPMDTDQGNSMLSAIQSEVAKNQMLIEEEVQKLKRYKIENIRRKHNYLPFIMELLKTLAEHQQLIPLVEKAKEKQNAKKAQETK
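Reagent: Ub-AMC substrate; assay system: Proteasome-associated human UCH37 deubiquitinase; controls: no-proteasome and no-compound wells; read-out: % inhibition of Ub-AMC cleavage fluorescence; timing: 30 min preincubation with enzyme, 25 min cleavage at room temperature; signal: AMC fluorescence from Ub-AMC cleavage, excitation 355 nm, emission 460 nm; buffer or medium: Tris-HCl pH 7.4 plus ovalbumin, ATP-MgCl2, DTT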
T cruzi repl: blocks replication of Trypanosoma cruzi; T. cruzi beta-gal in NIH3T3, luminescence, 90 h; inhibition, % (test concentration not listed); 1.4% of 300,000 active;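 active = mean inhibition across valid replicates above about 55%, limit read from the data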;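 note: signal also drops with host cell toxicity which is not excluded here; 0% = plate median of DMSO wells and 100% = zero luminescence signal; higher percent means less beta-gal luminescence so fewer parasites; stock transfer was 50 nL into about 50 µL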
Ecoli growth: E. coli growth inhibition; Escherichia coli growth, OD600, 23 h; active compounds read low; OD600 absorbance (no concentration beside the values); 0.21% of 330,000 active;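 active = OD600 absorbance below the run mean of sample wells minus 3.6 SD, in any replicate, cut at about 0.56 in these data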;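 note: stock transfer was 300 nL into about 60 µL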
AF4-AF9 inh: inhibitors of human MLL-AF4/AF9 interaction; AID 651704; inhibition, % at 10 µM; 0.47% of 350,000 active; AlphaScreen, biotin-AF4 peptide binding to FLAG-AF9; P42568;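 active = every replicate reaching a set inhibition limit, whatever the replicate mean, cut at about 25% in these data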;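 note: 0% = plate neutral control median and 100% = total signal loss; the record names both 10 and 1 µM as test concentration; the first replicate is given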
Target sequence (P42568 whole entry, looked up): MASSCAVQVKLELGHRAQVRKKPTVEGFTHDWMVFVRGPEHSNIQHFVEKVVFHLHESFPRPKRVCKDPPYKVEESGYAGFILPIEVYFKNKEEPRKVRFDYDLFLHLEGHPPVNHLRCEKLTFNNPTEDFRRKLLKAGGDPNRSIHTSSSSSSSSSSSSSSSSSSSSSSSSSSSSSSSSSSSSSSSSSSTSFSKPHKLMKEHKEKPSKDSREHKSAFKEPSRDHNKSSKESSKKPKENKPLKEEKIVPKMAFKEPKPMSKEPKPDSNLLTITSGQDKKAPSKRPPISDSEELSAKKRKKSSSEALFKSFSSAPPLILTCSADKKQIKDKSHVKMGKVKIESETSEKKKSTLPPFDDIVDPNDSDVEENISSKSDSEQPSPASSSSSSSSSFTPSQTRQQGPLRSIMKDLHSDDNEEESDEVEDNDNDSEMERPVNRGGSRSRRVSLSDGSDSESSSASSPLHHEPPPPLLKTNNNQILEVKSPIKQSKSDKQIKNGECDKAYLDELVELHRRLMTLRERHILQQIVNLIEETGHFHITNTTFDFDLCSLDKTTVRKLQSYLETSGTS
FGF22 binding: shifts melting point of recombinant human FGF22; Q9HCT0; recombinant FGF22 thermal shift, SYPRO orange fluorescence; percent of sucrose octasulfate shift, DMSO zero; calls only at 9.99 µM; 1.5% of 340,000 active;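 active = melting point raised past a set limit in the mean and every replicate; three in four hits are not shown here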
Target sequence (Q9HCT0 whole entry, looked up): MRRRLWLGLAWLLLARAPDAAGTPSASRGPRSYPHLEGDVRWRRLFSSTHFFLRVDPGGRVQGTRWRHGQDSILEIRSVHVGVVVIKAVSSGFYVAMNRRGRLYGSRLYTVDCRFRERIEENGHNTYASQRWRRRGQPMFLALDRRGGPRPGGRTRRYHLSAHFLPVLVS
Ecoli rRNA inh OD600: also measured in Ecoli rRNA inh; calls as there; OD600 change, %; measured here: OD600 growth;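 optical density of the mix in the first replicate; 0 = DMSO median and -100 = no signal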
Ecoli rRNA inh RFP: recorded beside Ecoli rRNA inh, whose call it bears; RFP signal change, %; measured here: RFP humanized mutant strains;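 first replicate; 0 = DMSO median and -100 = no signal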
* marks the source's active call; other numbers are inactive results; i = inactive; nt = not tested or not shown.

SMILES	Ecoli rRNA inh	Ecoli rRNA inh OD600	Ecoli rRNA inh RFP	Beta cell apopt	Bfl-1 A1 inh	UCH37 DUB inh	T cruzi repl	Ecoli growth	AF4-AF9 inh	FGF22 binding
CCCCc1ccc(-c2csc(/C(C#N)=C/c3ccco3)n2)cc1	-7	-12	1.2	2	0.6	0.7	-13	0.68	2.8	i
CCC(C)(C)NC(=O)CN(CC1CCCO1)C(=O)CCC(=O)Nc1nccs1 (centres undefined)	nt	nt	nt	nt	-0.1	3.4	6	0.75	nt	nt
CC(=O)N1C(c2ccccc2)CC(=O)OC1c1ccc2c(c1)OCO2 (centres undefined)	nt	nt	nt	nt	-5.0	3.7	-12	0.76	nt	nt
Cc1cccc(NC(=O)CC2SC(=NC3CCCCC3)NC2=O)c1 (centres undefined)	nt	nt	nt	-14	1.4	4.3	4	0.77	nt	nt
O=S(=O)(/N=C/c1c(O)ccc2ccccc12)c1ccccc1	32	30	5.6	nt	0.5	nt	3	nt	-8.3	i
Cc1ccc(N(C(=O)Nc2ccccc2)C2=NCC(C)S2)cc1 (centres undefined)	-3	-3	-3.1	2	0.9	-0.5	-6	0.7	nt	nt
CC(=O)NCCC(=O)NCc1ccc(F)cc1	nt	nt	nt	-7	0.2	0.0	3	0.68	nt	nt
Cc1cc(CNC(=O)c2ccc(C)c([N+](=O)[O-])c2)c2ccccc2n1	0	4	2.0	2	0.3	0.4	3	0.7	-4.6	i
CC(CC(=O)NCc1ccc(Cl)cc1)S(=O)(=O)c1ccc2c(c1)NC(=O)CO2 (centres undefined)	0	5	-3.9	-2	-0.5	0.6	-4	0.7	1.3	i
CC(Cc1c[nH]c2ccccc12)C(=O)O (centres undefined)	nt	nt	nt	nt	-0.3	1.6	-10	0.7	-45	i
COc1ccc(N2CCN(CC(=O)c3ccccc3)CC2)cc1	5	6	1.5	-2	-0.6	4.7	2	0.69	31*	i
CCCCNC(=O)N1CCCC(N(C)CCc2ccc(OC)c(OC)c2)C1 (centres undefined)	4	0	2.7	-3	-0.8	3.6	38	0.65	-0.6	i
COc1ccccc1NC(=O)c1ccccc1NS(=O)(=O)c1cccs1	-39	-59	-8.4	15	-0.5	-0.1	-16	0.69	-2.9	nt
Cc1onc(-c2c(F)cccc2Cl)c1C(=O)Nc1cc(S(=O)(=O)N2CCCCC2)ccc1O	-55	-78	-18	nt	nt	-0.4	nt	0.68	4.6	i
Cc1nn2cc(-c3cccc(Cl)c3)cnc2c1Cl	13	8	1.0	8	-7.1	3.6	-16	0.69	1.5	i
CCOc1ccccc1CN1CCN(Cc2cc(=O)c3ccccc3[nH]2)CC1CCO (centres undefined)	3	5	0.5	1	1.4	0.9	-9	0.71	-2.5	i
CC(=O)NC(C)C(=O)OCC(=O)Nc1ccc(Br)cc1 (centres undefined)	nt	nt	nt	-3	-0.1	-0.4	-2	0.69	nt	nt
CCOC(=O)C1(Cc2ccccc2)CCN(Cc2cccn2-c2cccnc2)CC1	3	-4	-9.1	5	0.0	0.5	10	0.67	3.4	i
CC(C)[C@H](NC(=O)C1CCN(S(=O)(=O)c2ccccc2)CC1)C(=O)NCc1ccc(F)cc1	-1	5	0.4	-1	-0.6	1.0	7	0.63	1.2	i
CC(=O)SC1CC(=O)N(c2c(C)cccc2C)C1=O (centres undefined)	-11	-6	-2.6	-21	0.1	3.2	-5	0.67	-3.7	i

Ordered by the number under AF4-AF9 inh (lowest first): some entries from above
Molecule	AF4-AF9 inh
Cc1cc(CNC(=O)c2ccc(C)c([N+](=O)[O-])c2)c2ccccc2n1	-4.6
CC(=O)SC1CC(=O)N(c2c(C)cccc2C)C1=O (centres undefined)	-3.7
COc1ccccc1NC(=O)c1ccccc1NS(=O)(=O)c1cccs1	-2.9
CCCCNC(=O)N1CCCC(N(C)CCc2ccc(OC)c(OC)c2)C1 (centres undefined)	-0.6
Cc1nn2cc(-c3cccc(Cl)c3)cnc2c1Cl	1.5

Later entries.
SMILES	Ecoli rRNA inh	Ecoli rRNA inh OD600	Ecoli rRNA inh RFP	Beta cell apopt	Bfl-1 A1 inh	UCH37 DUB inh	T cruzi repl	Ecoli growth	AF4-AF9 inh	FGF22 binding
O=C(CC1NCCc2ccccc21)Nc1ccccc1Cl (centres undefined)	0	2	-1.6	1	0.3	2.6	-13	0.66	-1.6	i
CCOc1ccc(N2C(=O)CC(N(O)c3ccccc3)C2=O)cc1 (centres undefined)	nt	nt	nt	-4	0.6	0.2	1	0.7	nt	nt
COc1ccccc1C(=O)N/C(=C\c1cn(S(=O)(=O)N(C)C)c2ccccc12)C(=O)NCCN1CCOCC1	nt	nt	nt	-3	0.5	1.5	6	0.69	nt	nt
c1ccc(-n2nnnc2CN2CCOCC2)cc1	2	1	2.0	-6	-0.4	4.7	-6	0.69	-1.7	i
COc1ccc(/C=C/C(=O)NCCCN2CCCCCC2)cc1	0	6	4.9	-2	-1.5	3.7	-4	0.67	9.2	i
O=C(c1cccc(C(F)(F)F)c1)N1CCN(C2CCCCC2)CC1	nt	nt	nt	-2	-0.3	1.5	-4	0.67	nt	nt
COc1cccc(/C=C2\Sc3ccc(C(=O)NCc4cccnc4)cc3N(C)C2=O)c1	-20	-14	36	7	0.0	-4.1	37	0.66	1.7	i
Cc1nnc(NC(=O)CSc2nc3c(c(=O)n2C)SC(C)C3)s1 (centres undefined)	15	5	2.2	-1	0.4	9.6	-3	0.78	-7.1	i
O=C(CCc1ccccc1)Nc1nnc(-c2cccs2)o1	-14	-24	-4.6	nt	1.0	4.3	2	0.72	6.1	i
CC(C)c1ccccc1NC(=O)COC(=O)CNC(=O)c1ccc(Br)cc1	4	-1	1.8	-5	0.7	0.7	-11	0.67	-2.9	i
CCc1ccc(NC(=O)CSc2nnc(-c3ccccn3)n2C)cc1	0	1	0.0	-2	-0.4	0.1	-7	0.7	-8.8	i
Oc1ccccc1-c1ccn[nH]1	3	14	0.9	4	0.3	1.4	nt	0.6	nt	i
CS(=O)(=O)N(CC(=O)NCc1ccccc1Cl)C1CCCCC1	nt	nt	nt	-1	-0.2	6.4	7	0.69	nt	nt
Cc1c(OCC(=O)N[C@@H](Cc2ccccc2)C(=O)O)ccc2c1oc(=O)c1ccccc12	-26	-18	-12	-3	0.4	i	-14	0.75	-1.5	i
O=C(O)CCSCC(=O)c1ccc2c(c1)OCCO2	nt	nt	nt	0	0.0	1.6	-6	0.72	nt	nt
COc1c(CC=C(C)C)cc(C2CC(=O)c3c(O)cc(O)cc3O2)c(CC=C(C)C)c1O (centres undefined)	nt	nt	nt	0	2.3	3.1	7	0.71	nt	nt
Cc1ccc(NC(=O)CSc2nnc(Cc3cccn3C)n2-c2ccc(F)cc2)c(C)c1	3	0	-0.5	0	1.0	1.9	3	0.71	1.5	i
O=c1[nH]c(=S)n(-c2cccc(C(F)(F)F)c2)c(O)c1C=NCCN1CCNCC1	13	11	0.1	nt	nt	6.0	-9	0.64	-0.8	i
O=C(O)C1CC=CCC1C(=O)NCc1ccccc1 (centres undefined)	nt	nt	nt	-5	-0.8	1.8	-4	0.7	nt	nt
CCN(CC)CCOC(=O)c1ccc(N/C=C(/C#N)c2nc(-c3ccc(OC)c(OC)c3)cs2)cc1	32	16	9.0	44	-0.5	12	48	0.66	5.7	i

The list goes on (three carried over from the part before).
SMILES	Ecoli rRNA inh	Ecoli rRNA inh OD600	Ecoli rRNA inh RFP	Beta cell apopt	Bfl-1 A1 inh	UCH37 DUB inh	T cruzi repl	Ecoli growth	AF4-AF9 inh	FGF22 binding
O=c1[nH]c(=S)n(-c2cccc(C(F)(F)F)c2)c(O)c1C=NCCN1CCNCC1	13	11	0.1	nt	nt	6.0	-9	0.64	-0.8	i
O=C(O)C1CC=CCC1C(=O)NCc1ccccc1 (centres undefined)	nt	nt	nt	-5	-0.8	1.8	-4	0.7	nt	nt
CCN(CC)CCOC(=O)c1ccc(N/C=C(/C#N)c2nc(-c3ccc(OC)c(OC)c3)cs2)cc1	32	16	9.0	44	-0.5	12	48	0.66	5.7	i
CC1CCc2nc3ccc(S(=O)(=O)N4CCC(C(=O)NCc5ccccc5Cl)CC4)cc3c(C(=O)O)c2C1 (centres undefined)	6	7	2.8	-1	0.8	0.0	4	0.69	-2.7	i
Cc1ccc(CONC(=O)c2cccc(C)c2)cc1	nt	nt	nt	1	-11	2.4	nt	0.69	3.2	i
COc1ccc(S(=O)(=O)N2CCSC2C)cc1C (centres undefined)	-1	-12	-2.5	nt	0.7	4.0	12	0.68	-9.3	i
CC(C)(C)NC(=O)C(c1ccc(-c2ccccc2)cc1)N(C[C@H]1CC[C@@H]([C@@H]2CC[C@H](CO)O2)O1)C(=O)c1cccc(Cl)c1 (some centres undefined)	nt	nt	nt	nt	nt	0.7	nt	0.7	0.6	i
CC1(c2ccccc2)NC(=O)N(CC(=O)Nc2cc3c(cc2Br)OCCO3)C1=O (centres undefined)	1	3	2.2	-1	0.1	1.8	-14	0.7	2.5	i
COC(=O)c1ccc(COC(=O)CNC(=O)c2ccc(-c3ccccc3)cc2)cc1	10	9	0.1	-2	-0.7	2.7	-8	0.74	-1.9	i
COc1ccc(CCNC(=O)C(NC(=O)OCc2ccccc2)C(C)C)cc1OC (centres undefined)	21	7	8.0	4	-0.3	1.8	5	0.67	1.8	i
O=C(Cc1cccs1)NCc1cccc(C(F)(F)F)c1	2	7	-0.1	-5	-0.7	-1.4	-13	0.66	-1.9	i
CC(C)(C)CN1CCC(n2nccc2NC(=O)c2ccccc2Cl)CC1	11	-1	-7.7	nt	1.1	5.4	4	0.67	1.0	i
COCCNC(C(=O)Nc1cc(Cl)cc(Cl)c1)c1ccccc1 (centres undefined)	nt	nt	nt	5	0.9	4.8	7	0.72	nt	nt
COc1ccc(OCCSc2nnc(CC(=O)Nc3cccc(Cl)c3Cl)n2C)cc1	nt	nt	nt	-1	-0.7	4.0	-12	0.65	nt	nt
CCCn1cc(CN2CCC(n3nccc3NC(=O)CCOc3ccccc3)CC2)c(C)n1	8	15	-2.6	1	0.1	4.0	10	0.7	-1.1	i
O=C(O)CCNC(=S)Nc1cccc(F)c1	10	-14	-1.2	-2	-0.3	1.4	-17	0.62	-6.3	i
CCc1ccc(C2C(C#N)=C(N)SC(N)=C2C#N)cc1	nt	nt	nt	1	0.9	9.2	-4	0.66	nt	nt
COC1CCCN(C(=O)c2ccc(OC3CCN(CCc4ccccc4)CC3)cc2)C1 (centres undefined)	16	10	-12	-1	0.3	0.0	-6	0.69	-1.1	i
COC(=O)c1[nH]c2ccc(F)cc2c1NS(=O)(=O)c1ccc(OC)cc1	2	5	-2.8	7	0.9	-2.4	-14	0.66	1.5	i
Cn1c2c(c(=O)n(C)c1=O)C(c1cccc([N+](=O)[O-])c1)Nc1ccccc1O2 (centres undefined)	nt	nt	nt	4	0.2	-1.3	7	0.74	nt	nt
O=C(Cn1cc([N+](=O)[O-])ccc1=O)NC1CCCCC1	17	9	1.0	1	0.6	3.5	nt	0.7	-1.4	i

The list is partial (hit frequency here may not be typical).
